Screening results deposited in PubChem by National Center for Advancing Translational Sciences (NCATS).
gsp antag: antagonizes gsp, the McCune-Albright syndrome mutation; gsp-mutant cells, cAMP HTRF, 30 min; control for the full effect not named in the record; Potency, µM (titrated, usually from 76.9 µM), for the others: at the top dose activity change, negative = inhibition, hits mostly inhibitors; hit rate 0.4% among 340,000; AID 624288; active = falling curve of any shape with a large fitted effect; inconclusive = falling curve, mostly with a smaller effect; inactive = flat or rising curve; cell line not stated here;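 further: intracellular cAMP measured with PDE inhibitor Ro 20-1724 present during compound exposure; potency means the concentration at half of the fitted maximal effect; on the % scale 0 is the no-effect control and ±100 the full control effect; nearly all actives have a fitted effect of over 65% in size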
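Measurement of cellular cAMP by homogeneous time-resolved fluorescence following a 30 min compound exposure at 37C. The PDE inhibitor […] was present throughout; the assay buffer was DPBS with 0.05% BSA and 0.005% Tween 20.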
gsp ag: agonists of gsp mutant (McCune-Albright syndrome); hit rate 0.13% among 340,000; Potency, µM (series often up to 76.9 µM), for inactives: at the top dose activation (cAMP increase), hits mostly activators; gsp mutant cells, cAMP HTRF, 30 min; control for the full effect not named in the record; active = well fitted activation curve with a large enough effect; inconclusive = small, poorly fitted or top-dose-only effect, or another doubt; inactive = no such curve, though single readings can be large or run the other way; cell line not stated here;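 further: phosphodiesterase inhibitor Ro 20-1724 added with compounds to block cAMP breakdown; potency means the concentration at half of the fitted maximal effect; nearly all actives have a fitted effect of over 60% in size; about a fifth of the inactives were tested at one dose only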
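Cells stably selected in G418 were plated at 2000/well, grown 16-24 hr, then given compounds in DMSO with the PDE inhibitor […] (300 uM solution added) for 30 min at 37C; cAMP was read by HTRF.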
TRPV1 potentiator: human TRPV1 potentiation; TRPV1-expressing cells, Fluo-8 calcium influx, capsaicin EC20 potentiation; host cell line not named in the record; control for the full effect not named in the record; Q8NER1; hit rate 0.02% among 320,000; potentiation, % at 8.33 µM; active means potentiation above 80%; inconclusive means 30% to 80%; inactive means below 30%; further: 0% is about no effect
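Cells expressing TRPV1 were dye-loaded with Fluo-8 and read kinetically: 10 s baseline, 3 min after compound (agonist portion), then 2 min after EC20 capsaicin (allosteric enhancer portion). Calcium-bound dye fluorescence at 480/520 nm.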
D2 potentiator: positive allosteric modulators of human D2 dopamine receptor. P14416. DiscoveRx D2 beta-arrestin cells, luminescence, 90 min; 100% = 57 uM dopamine signal. potentiation, % (concentration not given with the values). hit rate 0.23% among 360,000. AID 624464; active = potentiation of 50% or more; inconclusive = 30% to 50%; inactive = 30% or less;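 further: compound concentration not given in the record; tested on top of an EC20 dose of dopamine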
Target sequence (P14416 whole entry, looked up): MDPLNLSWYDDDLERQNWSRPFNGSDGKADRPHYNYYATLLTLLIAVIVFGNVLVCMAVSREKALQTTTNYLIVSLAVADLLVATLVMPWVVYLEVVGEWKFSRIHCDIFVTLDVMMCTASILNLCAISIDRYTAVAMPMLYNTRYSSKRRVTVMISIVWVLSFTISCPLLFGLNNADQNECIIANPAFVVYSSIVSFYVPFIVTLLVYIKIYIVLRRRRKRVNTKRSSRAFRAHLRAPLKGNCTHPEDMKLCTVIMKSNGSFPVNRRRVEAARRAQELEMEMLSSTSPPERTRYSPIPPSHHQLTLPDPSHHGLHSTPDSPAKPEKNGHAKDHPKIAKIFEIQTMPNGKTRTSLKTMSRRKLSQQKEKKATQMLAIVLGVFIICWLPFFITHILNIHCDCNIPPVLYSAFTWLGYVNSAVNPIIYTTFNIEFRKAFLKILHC
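PathHunter D2 cells, attached overnight at 37 deg C, received compound in DMSO plus dopamine at EC20 (50 nM final) for 90 min at 37 deg C. Beta-arrestin recruitment was read as luminescence after 1 h with detection reagent at ambient temperature.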
Menin-MLL FL inh: inhibitors of human menin-MLL interaction, wild-type MLL peptide. Fluorescence polarization, fluorescein-MLL peptide displacement from menin. FP activity change, % at 61.4 µM. 290,000 tested, under 10 active; inconclusive = falling polarisation curve, or a change in total fluorescence; inactive = total fluorescence flat and polarisation flat or rising; no compound was filed as active; the % refers to the polarisation; negative = inhibition;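 further: % of control where 0% means no effect; inhibitors lower the polarisation; unlabelled MLL peptide was the positive control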
Sfp PPTase inh: Sfp phosphopantetheinyl transferase inhibition; Biochemical Sfp PPTase activity, qHTS; Potency, µM, inactives show max response, negative = inhibition, hits mostly inhibitors; hit rate 3.5% among 310,000; active means well fitted inhibition curve with a large enough effect; inconclusive means small, poorly fitted or top-dose-only effect, or another doubt; inactive means no such curve, though single readings can be large or run the other way;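 further: the enzyme is Sfp with the accession as filed and its product quenches rhodamine fluorescence; potency means the concentration at half of the fitted maximal effect; 0% = enzyme reaction without inhibitor and -100% = no enzyme wells; top concentration of the series not given in the record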
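Compounds were incubated with enzyme (final 15 nM) for 15 min at room temperature before substrate addition started the reaction. Fluorescence at 525 nm excitation, 598 nm emission was recorded immediately and after 30 minutes.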
ClpP mod: qHTS Assay for Activators of ClpP | Potency, µM (top dose mostly 57.5 µM), for the others: at the highest dose activity change, negative = active | purified B. subtilis ClpP, FRET peptide cleavage, 20 min | hit rate 1.9% among 340,000; active = well fitted falling curve with a large enough effect; inconclusive = small, poorly fitted or top-dose-only effect; inactive = no such curve, though single readings can be large or run the other way; further: potency means the concentration at half of the fitted maximal effect; the source files actives as falling curves though it sought activators and does not explain the sign; nearly all actives have a fitted effect of over 65% in size; many hits overshoot -100%
Target sequence (P80244 whole entry, looked up): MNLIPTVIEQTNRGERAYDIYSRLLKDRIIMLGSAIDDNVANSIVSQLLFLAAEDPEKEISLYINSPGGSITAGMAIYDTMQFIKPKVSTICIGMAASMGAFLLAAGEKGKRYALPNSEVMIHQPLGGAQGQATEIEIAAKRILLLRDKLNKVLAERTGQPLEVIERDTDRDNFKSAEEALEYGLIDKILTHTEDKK
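FRET quenching reversal measured ClpP activation: 10 microg/mL B. subtilis ClpP at pH 8 with the FRET-FV decapeptide, read at 430 nm after 320 nm excitation. The 20-min minus 0-min signal was scaled between DMSO/no-enzyme wells and ADEP (5.8 microM final).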
The depositor's hits bear a star; ? = inconclusive; . = no result given; & = joins results of further samples; [ ] = another dose, or the depositor's remark.

SMILES | gsp antag | gsp ag | TRPV1 potentiator | D2 potentiator | Menin-MLL FL inh | Sfp PPTase inh | ClpP mod
CCOc1ccccc1N(CC(=O)NC1CCCC1)C(=O)CNC(=O)c1cccs1 | . | 6%[15.4 µM] | 4 | 5 | 0.0 | 14% | .
CCNC(=S)Nc1ccc(Cl)cc1 | 9% | -3% | -11 | 3 | -0.2 | -2% | -1.8%
COc1ccc(CNC(=O)CN2C(=O)NC(C)(c3ccc(C(C)(C)C)cc3)C2=O)cc1 (stereo not given) | -16% | -1%[15.4 µM] | 1 | -7 | 3.9 | 9% | -0.4%
COc1ccc(-n2cc(C#N)c(=O)n(Cc3ccc(F)cc3)c2=O)cc1 | -3% | 3%[15.4 µM] | -4 | -2 | 0.1 | 0% | .
O=C(NCc1ccccc1)c1ccc2nnsc2c1 | -11% | -9% | 0 | -3 | 0.6 | 10% | .
COc1cccc(C2CC(c3ccc(C)cc3)Nc3nc(N)nn32)c1 (stereo not given) | 0% | 11% | -3 | -2 | 6.4 | 5% | -0.4%
CCOC(=O)/C(=C\c1ccc(Cl)cc1)c1nc2sc(C)c(C)c2c(=O)[nH]1 | 18% | -14% | 14 | -20 | 3.3 | 40µM* | -1.9%
Cc1ccc(C(=O)N/N=C(\CC(C)C)c2ccccc2)cc1 | -2% | -25%[15.4 µM] | -24 | -25 | 3.1 | -4% | -1.0%
CCN(CC)S(=O)(=O)c1ccc(NS(=O)(=O)CC23CCC(CC2=O)C3(C)C)cc1 (stereo not given) | -2% | -25% | 12 | 2 | -0.6 | 8% | -2.1%
C(=N\c1c(-c2ccccc2)nc2n1CCS2)/c1ccccc1 | -20% | 0% | 28 | 5 | 4.2 | 9% | -1.0%
CC(C)c1ccc(OCC(=O)NNC(=S)NC(=O)c2cccs2)c(Br)c1 | 2% | 4%[15.4 µM] | 0 | -25 | . | 9% | -2.0%
O=S(=O)(NCC(c1cccnc1)N1CCN(Cc2ccccc2)CC1)c1ccccc1 (stereo not given) | -4% | 14% | 13 | -11 | -3.7 | 6% | -4.1%
COCCNc1ccc([N+](=O)[O-])cc1C(=O)NC1CCCc2ccccc21 (stereo not given) | -17% | -98%[inhibitor] | 0 | -5 | -2.6 | 1% | .
O=C(O)c1ccc([N+](=O)[O-])c(CS(=O)(=O)c2ccc(Cl)cc2)c1 | 10% | 7% | -6 | -2 | 0.6 | -7% | 1.2%
O=C(Nc1ccsc1C(=O)O)c1ccccc1Cl | ? | 0% | 3 | 19 | 0.2 | 24% | .
Cc1ccccc1NC(=O)c1cccc(N2C(=O)C3CCCCC3C2=O)c1 (stereo not given) | -3% | -7%[15.4 µM] | -8 | -2 | -7.6 | 15% | .
NNC(=O)COc1ccc2oc3c(c2c1)CCCC3 | . | 1%[15.4 µM] | -11 | 6 | 0.9 | -1% | .
COc1ccc(S(=O)(=O)N2CCc3ccccc32)cc1C(=O)NC1(C)CCS(=O)(=O)C1 (stereo not given) | -20% | ? | 5 | -4 | . | . | -0.9%
CCCCc1nc2cc(C(=O)N3CCCC(OCCC)C3)ccc2o1 (stereo not given) | -2% | ? | -23 | -2 | . | 16% | -0.3%
Cc1cc(=O)[nH]c(SCC(=O)Nc2ccc(C(=O)O)cc2)n1 | 5% | -46%[inhibitor] | -15 | -11 | 3.9 | 7% | 0.1%
CNC(=O)c1ccc(Nc2nnc(-c3ccc(C(N)=O)cc3)c3ccccc23)cc1 | 7% | 8%[15.4 µM] | -2 | -5 | 3.7 | 12% | -1.3%
CC1CCCC(C)N1C(=O)COc1ccc([N+](=O)[O-])cc1Cl (stereo not given) | -14% | -10% | -16 | -4 | -1.2 | 2% | -1.5%
COc1cccc(/C=N/Nc2nn3cnnc3c3ccccc23)c1O | 9% | 3% | 18 | -24 | 2.0 | 15% | -1.6%
COc1ccc(NC(=S)NC23CN4CN(CN(C4)C2)C3)c(OC)c1 | 3% | -6%[15.4 µM] | -1 | -16 | -3.7 | -3% | .
CN1C(=O)/C(=C2\SC(N)=NC2=O)c2ccccc21 | -11% | -7%[15.4 µM] | 11 | 1 | 4.8 | 56µM* | 0.5%
O=C(Cc1cscn1)c1ccc(O)cc1O | 0% | -5% | -21 | -22 | -2.9 | -11% | -1.8%
COc1ccc(-c2csc(NC(=O)CC(C)C)n2)cc1 | 5% | -11% | 25 | 0 | -1.8 | -5% | -1.2%
NS(=O)(=O)c1ccc(NC(=O)C2C3C=CC(C3)C2C(=O)O)cc1 (stereo not given) | -9% | -4%[15.4 µM] | 7 | 2 | -4.3 | 2% | .
CCC(C(=O)NC1CCCCC1)n1c(SCc2cccc(C)c2)nc2ccncc21 (stereo not given) | 3% | 28% | 4 | -9 | 12 | 1% | -14%&-3.8%
CCOc1ccc(C(=O)N2CCn3c2nc2ccccc23)cc1 | 1% | 21%[15.4 µM] | -3 | -5 | -0.1 | -5% | .
CC1(C)Cc2c(sc(NC(=O)c3ccccc3Cl)c2C(=O)O)CO1 | -22% | -2%[15.4 µM] | -2 | 3 | -0.4 | 5% | .
O=C(COC(=O)CC12CC3CC(CC(Br)(C3)C1)C2)NC(=O)NCc1ccco1 | 2% | 1% | -6 | -5 | 4.5 | -7% | 1.2%
CCC(C)NC(=O)Cn1c(=O)sc2ccccc21 (stereo not given) | 12% | 6% | -5 | -3 | -3.5 | 19% | .
Cn1c(=O)cc(SCC(=O)NCC2CCCO2)c2ccc(Cl)cc21 (stereo not given) | 2% | ? | -1 | 8 | 2.5 | 18% | -5.9%
O=C(c1cn(Cc2ccccc2)nc1-c1cccnc1)N1CCN(Cc2c(F)cccc2Cl)CC1 | -11% | -1% | -10 | -8 | . | . | 1.9%
CO/N=C/c1cc([N+](=O)[O-])ccc1Sc1ccc(C)cc1 | -4% | -28% | 25 | -11 | 0.4 | -29% | 1.5%
CCN(Cc1ccccc1)S(=O)(=O)c1cn(C)cn1 | 7% | ? | 23 | -21 | . | 3% | -0.4%
COC(=O)COc1ccccc1C(=O)Nc1ccc(OC)cc1 | -22% | 5%[15.4 µM] | -8 | -8 | 2.4 | 7% | .
Cc1nonc1NC(=O)c1ccc(Cl)c(S(=O)(=O)N2CCCCC2)c1 | -27% | 7% | -12 | -3 | 1.9 | 8% | 0.5%
CCOC(=O)c1ccc(NS(=O)(=O)c2cc3c4c(c2)CCN4C(=O)CC3)cc1 | -10% | 12% | 11 | 26 | . | . | -0.9%
C=CCOc1c(CNC2CCCC2)cc(Cl)cc1OC | -1% | 11% | 8 | -22 | -1.7 | 4% | -1.0%
CC(C)C[C@H](NC(=O)NCc1ccc(Cl)cc1)C(=O)O | 6% | ? | 15 | 3 | 2.5 | 15% | -5.3%
Cc1cccc(C)c1NC(=O)CS(=O)CC(=O)NCC1OCCc2ccccc21 (stereo not given) | 3% | 10% | 3 | 9 | ? | 5% | -3.8%
O=C1C(c2ccc(F)cc2)N(C2CCCCC2)C(=O)CN1C1CCCC1 (stereo not given) | -2% | 3% | -35 | -14 | -2.1 | 16% | 0.6%
CC(C)C(c1nnnn1Cc1cccs1)N1CCN(C(=O)c2ccco2)CC1 (stereo not given) | -8% | 8%[15.4 µM] | 6 | -3 | -1.7 | 18µM* | .
CC1Cc2ccccc2N1C(=O)COc1cccc(-n2cnnn2)c1 (stereo not given) | -18% | 15% | 2 | -12 | 1.1 | 3% | -2.1%
CCOc1ccccc1-c1nc2c([nH]1)c(=O)n(C)c(=O)n2C | 9% | 20% | -4 | -3 | -2.2 | 5% | 3.5µM*
Cc1c(Cl)cccc1NC(=O)CNC(=O)C1CC(=O)N(CCc2ccccc2)C1 (stereo not given) | 3% | -6% | -8 | 9 | . | . | -1.9%
Cc1ccc(NC(=O)c2cc(N(C)C)ccc2[P+](=O)O)cc1 | 2% | 0% | 11 | 5 | -0.2 | 10% | -6.0%
Cc1cc(=O)n2nc(N3CCC(C(=O)N4CCN(c5ccccc5)CC4)CC3)sc2n1 | -3% | 15% | 6 | -9 | 8.6 | 29% | 0.8%
COc1cc(NC(=O)C2CC(=O)NC3=C2C(=O)CCC3)c(OC)cc1Cl (stereo not given) | 23% | 0% | 0 | 11 | 0.3 | 0% | 2.5%
O=C(Nc1cc2c3c(c1)CC(=O)N3CCC2)C1CC1 | 0% | 33%[15.4 µM] | -29 | -12 | . | . | .

Of the compounds above, these contain an aryl methoxy group.
SMILES | gsp antag | gsp ag | TRPV1 potentiator | D2 potentiator | Menin-MLL FL inh | Sfp PPTase inh | ClpP mod
COc1ccc(CNC(=O)CN2C(=O)NC(C)(c3ccc(C(C)(C)C)cc3)C2=O)cc1 (stereo not given) | -16% | -1%[15.4 µM] | 1 | -7 | 3.9 | 9% | -0.4%
COc1ccc(-n2cc(C#N)c(=O)n(Cc3ccc(F)cc3)c2=O)cc1 | -3% | 3%[15.4 µM] | -4 | -2 | 0.1 | 0% | .
COc1cccc(C2CC(c3ccc(C)cc3)Nc3nc(N)nn32)c1 (stereo not given) | 0% | 11% | -3 | -2 | 6.4 | 5% | -0.4%
COc1ccc(S(=O)(=O)N2CCc3ccccc32)cc1C(=O)NC1(C)CCS(=O)(=O)C1 (stereo not given) | -20% | ? | 5 | -4 | . | . | -0.9%
COc1cccc(/C=N/Nc2nn3cnnc3c3ccccc23)c1O | 9% | 3% | 18 | -24 | 2.0 | 15% | -1.6%
COc1ccc(NC(=S)NC23CN4CN(CN(C4)C2)C3)c(OC)c1 | 3% | -6%[15.4 µM] | -1 | -16 | -3.7 | -3% | .
COc1ccc(-c2csc(NC(=O)CC(C)C)n2)cc1 | 5% | -11% | 25 | 0 | -1.8 | -5% | -1.2%
COC(=O)COc1ccccc1C(=O)Nc1ccc(OC)cc1 | -22% | 5%[15.4 µM] | -8 | -8 | 2.4 | 7% | .
C=CCOc1c(CNC2CCCC2)cc(Cl)cc1OC | -1% | 11% | 8 | -22 | -1.7 | 4% | -1.0%
COc1cc(NC(=O)C2CC(=O)NC3=C2C(=O)CCC3)c(OC)cc1Cl (stereo not given) | 23% | 0% | 0 | 11 | 0.3 | 0% | 2.5%
